Source: PubChem
FGF22 binding: binders of recombinant human FGF22 by thermal shift | Q9HCT0 | AID 651658 | calls only at 9.99 µM | actives 1.5% (n = 340,000) | SYPRO orange fluorescence; percent of sucrose octasulfate shift, DMSO zero;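 active = melting point raised past a set limit in the mean and every replicate; three in four hits are not shown here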
Target sequence (Q9HCT0 whole entry, looked up): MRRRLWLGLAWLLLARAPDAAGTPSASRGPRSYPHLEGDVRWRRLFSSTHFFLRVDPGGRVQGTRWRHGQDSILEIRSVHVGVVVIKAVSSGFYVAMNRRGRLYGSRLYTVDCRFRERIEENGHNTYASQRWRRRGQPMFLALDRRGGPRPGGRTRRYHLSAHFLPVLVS
Calls only; i = inactive; + = active, no number. The list is partial (hit frequency here may not be typical).

SMILES	FGF22 binding
CC(C)NC(=O)N(C)C[C@@H]1OCCCC[C@@H](C)Oc2ccc(NC(=O)c3ccccc3)cc2C(=O)N([C@H](C)CO)C[C@H]1C	i
C[C@@H]1CCCCO[C@@H](CN(C)S(=O)(=O)c2ccc(F)cc2)[C@H](C)CN([C@@H](C)CO)C(=O)c2cc(N(C)C)ccc2O1	i
COc1ccc(S(=O)(=O)Nc2ccc3c(c2)C(=O)N([C@@H](C)CO)C[C@H](C)[C@H](CN(C)C(=O)NC(C)C)O3)cc1	i
CC(=O)N(C)C[C@@H]1Oc2ncc(-c3cccc(C#N)c3)cc2C(=O)N([C@@H](C)CO)C[C@H]1C	i
CO[C@@H]1CN(C)C(=O)c2cc(NS(C)(=O)=O)ccc2OC[C@H](C)N(C(=O)C2CC2)C[C@H]1C	i
COc1ccc(NC(=O)Nc2ccc3c(c2)C(=O)N([C@@H](C)CO)C[C@H](C)[C@H](CN(C)Cc2ccc(C(F)(F)F)cc2)OCCCC[C@H](C)O3)cc1	i
C[C@H]1CCCCO[C@H](CN(C)S(C)(=O)=O)[C@@H](C)CN([C@@H](C)CO)C(=O)c2cc(NS(=O)(=O)c3cn(C)cn3)ccc2O1	i
CCC(=O)N(C)C[C@H]1Oc2ncc(C#C[C@H](C)O)cc2C(=O)N([C@H](C)CO)C[C@H]1C	i
CCC(=O)Nc1ccc2c(c1)OC[C@@H](C)N(Cc1ccccc1F)C[C@H](C)[C@@H](OC)CN(C)C2=O	i
Cc1ccc(S(=O)(=O)N(C)C[C@H]2Oc3ccc(NS(=O)(=O)c4ccc(Cl)cc4)cc3C(=O)N([C@@H](C)CO)C[C@H]2C)cc1	i
CC(C)CC#Cc1ccc2c(c1)O[C@H](CN(C)Cc1ccc(F)cc1)[C@@H](C)CN([C@H](C)CO)S2(=O)=O	i
C[C@H]1CN([C@@H](C)CO)C(=O)c2cccc(NS(=O)(=O)c3ccc(F)cc3)c2O[C@@H]1CN(C)S(=O)(=O)c1ccc(Cl)cc1	i
C[C@@H]1CCCCO[C@H](CN(C)S(=O)(=O)c2cccs2)[C@H](C)CN([C@H](C)CO)C(=O)c2cc(NS(=O)(=O)c3ccc(F)cc3)ccc2O1	i
O=C(Nc1ccccc1)N1CCCCN2[C@H](C1)[C@@H](c1ccc(C#Cc3cccnc3)cc1)[C@@H]2CO	i
COC(=O)C[C@@H]1CC[C@H]2[C@@H](COc3ccc(NC(=O)Nc4cccc(F)c4)cc3C(=O)N2C)O1	i
C/C=C/c1ccc2c(c1)O[C@@H](CN(C)Cc1ccc(F)cc1)[C@H](C)CN([C@@H](C)CO)S2(=O)=O	i
CO[C@H]1CN(C)C(=O)c2cc(NC(=O)NC3CCCCC3)ccc2OC[C@H](C)N(CC2CC2)C[C@@H]1C	i
CCCC#Cc1ccc([C@@H]2[C@@H](CO)N3CCCCN(S(=O)(=O)c4ccccc4C)C[C@@H]23)cc1	i
CCC(=O)N(C)C[C@H]1Oc2ncc(-c3ccc(C(=O)N(C)C)cc3)cc2C(=O)N([C@H](C)CO)C[C@@H]1C	i
COc1cccc(NC(=O)N[C@H]2CC[C@@H](CC(=O)Nc3ccc(-c4ccccc4)cc3)O[C@@H]2CO)c1	i
COc1ccc2c3c(n(C)c2c1)[C@@H](CO)N(Cc1ccccc1)CC31CCN(C(=O)C2CC2)CC1	i
C[C@H]1CN([C@@H](C)CO)C(=O)c2cc(NC(=O)c3ccncc3)ccc2O[C@@H]1CN(C)C	i
Cc1noc(C)c1NC(=O)Nc1ccc2c(c1)C(=O)N([C@@H](C)CO)C[C@@H](C)[C@@H](CN(C)Cc1ccncc1)OCCCC[C@@H](C)O2	i
COCCNC(=O)C[C@H]1CC[C@@H]2[C@@H](COc3ccc(NC(=O)c4ccno4)cc3C(=O)N2C)O1	i
COCC#Cc1ccc2c(c1)O[C@H](CN(C)C(=O)c1ccccc1)[C@H](C)CN([C@@H](C)CO)S2(=O)=O	i
CCNC(=O)[C@@H]1[C@@H](CO)[C@@H]2Cn3c(ccc(-c4cccc(F)c4)c3=O)[C@@H]2N1Cc1cc(F)ccc1F	i
C[C@H](CO)N1C[C@H](C)[C@@H](CN(C)Cc2ccccc2)Oc2cc(C#CC3CC3)ccc2S1(=O)=O	i
C[C@@H]1CN([C@@H](C)CO)C(=O)c2cc(NC(=O)Nc3ccc(C(F)(F)F)cc3)ccc2O[C@@H]1CN(C)Cc1ccc(C(=O)Nc2ccccc2N)cc1	i
COCC(=O)N1CC2(C1)[C@H](c1ccc(-c3cccc(F)c3)cc1)[C@@H](CO)N2C(=O)COC	i
O=C(Nc1cc(F)ccc1F)N[C@@H]1CC[C@H](CCn2cc(C3CC3)nn2)O[C@H]1CO	i
C[C@@H]1CN([C@H](C)CO)C(=O)c2cccc(NS(=O)(=O)c3cn(C)cn3)c2O[C@@H]1CN(C)Cc1ccc(C(F)(F)F)cc1	i
CN(C)CC(=O)N1[C@@H](C#N)[C@H](c2ccccc2-c2cccc(C(=O)N(C)C)c2)[C@@H]1CO	i
COc1ccc2c3c(n(C)c2c1)[C@H](CO)NCC31CN(Cc2ccccc2F)C1	i
O=C(CC1CC1)N1CC2(C1)[C@@H](c1ccccc1)[C@@H](CO)N2C(=O)c1ccccn1	i
C[C@@H]1CN([C@@H](C)CO)C(=O)c2cc(NC(=O)Cn3cnnn3)ccc2O[C@H]1CN(C)CC1CCCCC1	i
COc1ccc(NC(=O)Nc2ccc3c(c2)C(=O)N([C@H](C)CO)C[C@@H](C)[C@H](CN(C)S(=O)(=O)c2ccc(C)cc2)O3)cc1	i
Cc1noc(C)c1NC(=O)N(C)C[C@H]1Oc2ccc(NS(=O)(=O)c3c(C)noc3C)cc2CC(=O)N([C@H](C)CO)C[C@H]1C	i
C[C@@H]1CN([C@H](C)CO)C(=O)Cc2cc(NS(C)(=O)=O)ccc2O[C@H]1CN(C)Cc1ccccc1	i
O=C(C[C@H]1C[C@@H]2c3cc(NC(=O)Nc4ccccc4F)ccc3O[C@@H]2[C@@H](CO)O1)NCCc1ccccc1	i
C[C@@H]1CN([C@H](C)CO)C(=O)c2cc(NC(=O)C3CCCCC3)ccc2O[C@@H](C)CCCCO[C@@H]1CN(C)C(=O)Nc1ccccc1	i
C[C@H]1CN([C@@H](C)CO)C(=O)c2cc(-c3cccnc3)cnc2O[C@@H]1CN(C)S(C)(=O)=O	i
COc1ccc2c3c(n(C)c2c1)[C@@H](CO)N(C(=O)c1ccccc1)CC31CN(C(=O)c2ccccc2)C1	i
CCCC#Cc1cnc2c(c1)C(=O)N([C@@H](C)CO)C[C@H](C)[C@@H](CN(C)C(=O)c1ccc3c(c1)OCO3)O2	i
C[C@@H](NC(=O)C[C@@H]1CC[C@H](NC(=O)Cc2ccccn2)[C@@H](CO)O1)c1ccccc1	i
O=C(C1CCCCC1)N1CC2(C1)[C@@H](c1ccccc1)[C@@H](CO)N2CCC(F)(F)F	i
C[C@@H]1CN([C@@H](C)CO)C(=O)c2cc(-c3cccc(F)c3)cnc2O[C@H]1CN(C)C(=O)C1CCC1	i
C[C@@H]1CN([C@@H](C)CO)C(=O)Cc2cc(NC(=O)Nc3ccc(F)cc3)ccc2O[C@@H]1CN(C)Cc1ccncc1	i
C[C@@H]1CN([C@@H](C)CO)C(=O)c2cc(C3=CCCC3)cnc2O[C@@H]1CN(C)Cc1ccccn1	i
COCC#Cc1ccc2c(c1)O[C@H](CN(C)C(=O)C1CCCCC1)[C@H](C)CN([C@H](C)CO)S2(=O)=O	i
CCCN(C)C[C@H]1Oc2cc(C#Cc3ccccc3F)ccc2S(=O)(=O)N([C@@H](C)CO)C[C@H]1C	i

Further structures follow:
SMILES	FGF22 binding
CC(C)CC#Cc1ccc2c(c1)O[C@H](CN(C)C(=O)c1cccc(F)c1)[C@H](C)CN([C@@H](C)CO)S2(=O)=O	i
C[C@@H](NC(=O)C[C@@H]1C=C[C@H](NC(=O)C2CCOCC2)[C@H](CO)O1)c1ccccc1	i
C[C@H]1CN([C@@H](C)CO)C(=O)c2cc(NC(=O)NC3CCCCC3)ccc2O[C@@H]1CN(C)Cc1ccc2c(c1)OCO2	i
Cc1noc(C)c1NC(=O)Nc1ccc2c(c1)C(=O)N([C@@H](C)CO)C[C@H](C)[C@H](CN(C)Cc1ccc3c(c1)OCO3)OCCCC[C@@H](C)O2	i
C[C@@H]1CN([C@H](C)CO)C(=O)c2cccc(NC(=O)C3CCCCC3)c2O[C@@H]1CN(C)S(=O)(=O)c1ccccc1	i
CNC[C@H]1Oc2ncc(C#CC3(O)CCCC3)cc2C(=O)N([C@H](C)CO)C[C@@H]1C	i
COCCOC(=O)N1C(=O)[C@@]2(c3cc(C#CCCO)ccc31)[C@H](c1ccccc1OCCO)N1[C@H](c3ccccc3)[C@H](c3ccccc3)OC(=O)[C@H]1[C@@H]2C(=O)N1CCN(c2ncccn2)CC1	i
C[C@@H]1CN([C@H](C)CO)S(=O)(=O)c2ccc(C#CCC3CCCC3)cc2O[C@H]1CN(C)C(=O)CC1CC1	i
COc1ccc2c3c([nH]c2c1)[C@H](CO)N(CC1CC1)CC31CN(C(=O)c2cccc(F)c2)C1	i
CCCNC(=O)N1[C@H](CO)[C@@H]2c3ccccc3N(C(=O)c3ccccc3)C[C@@H]21	i
O=C(C[C@@H]1CC[C@@H](NC(=O)Nc2ccccc2F)[C@H](CO)O1)NCc1ccc(Cl)cc1	i
C[C@@H]1CCCCO[C@@H](CN(C)Cc2ccncc2)[C@H](C)CN([C@@H](C)CO)C(=O)c2cc(NC(=O)C3CCCCC3)ccc2O1	i
C[C@@H]1CN([C@@H](C)CO)C(=O)c2cc(C3=CCCCC3)cnc2O[C@H]1CN(C)Cc1cccnc1	i
CN(C)CC(=O)N[C@H]1C=C[C@H](CC(=O)NCc2ccccc2F)O[C@H]1CO	i
COc1ccc(NC(=O)N(C)C[C@H]2Oc3cc(-c4ccc(C)cc4)ccc3S(=O)(=O)N([C@H](C)CO)C[C@H]2C)cc1	+
C[C@H](O)C#Cc1ccc2c(c1)O[C@@H](CN(C)C(=O)c1ccccc1)[C@@H](C)CN([C@H](C)CO)S2(=O)=O	i
OC[C@@H]1[C@@H](c2ccc(C#CC3CCCC3)cc2)[C@H]2CN(CCC(F)(F)F)CCCCN12	i
CO[C@H]1CN(C)C(=O)c2cc(NC(C)=O)ccc2OC[C@H](C)N(C(=O)C2CCC2)C[C@H]1C	i
CS(=O)(=O)N1CC2(C1)[C@H](c1ccccc1)[C@H](CO)N2CC1CCCC1	i
CO[C@H]1CN(C)C(=O)c2cc(NC(=O)c3ccccc3F)ccc2OC[C@H](C)N(C)C[C@H]1C	i
Cc1ccc(S(=O)(=O)Nc2cccc3c2O[C@H](CN(C)Cc2ccc(Oc4ccccc4)cc2)[C@@H](C)CN([C@@H](C)CO)C3=O)cc1	i
CNC[C@@H]1OCCCC[C@H](C)Oc2ccc(NS(C)(=O)=O)cc2C(=O)N([C@@H](C)CO)C[C@H]1C	i
C[C@H](CO)N1C[C@H](C)[C@H](CN(C)C(=O)[C@H]2CCCN2C)OCc2ccccc2-c2c(n(C)c3ccccc23)C1=O	i
COCC(=O)Nc1ccc2c(c1)OC[C@@H](C)N(C(=O)Cc1cccnc1)C[C@H](C)[C@H](OC)CN(C)C2=O	i
Cc1noc(C)c1NC(=O)N(C)C[C@H]1Oc2ncc(C#CCN(C)C)cc2C(=O)N([C@H](C)CO)C[C@@H]1C	i
C[C@H]1CN([C@@H](C)CO)C(=O)c2cccc(NC(=O)Nc3ccccc3)c2O[C@H]1CN(C)C	i
COC(=O)C[C@H]1CC[C@@H]2[C@H](COc3ccc(NC(=O)c4ccccc4F)cc3C(=O)N2C)O1	i
CCCNC(=O)C[C@H]1CC[C@@H]2[C@H](COc3ccc(NC(=O)Nc4ccccc4F)cc3C(=O)N2C)O1	i
CCN1[C@@H]2c3ccc(-c4ccncc4)c(=O)n3C[C@@H]2[C@@H](CO)[C@@H]1C(=O)Nc1ccccc1	i
O=C([C@H]1[C@H](CO)[C@H]2Cn3c(ccc(-c4ccccc4F)c3=O)[C@@H]1N2C(=O)C1CC1)N1CCOCC1	i
COC(=O)C[C@H]1CC[C@H]2[C@@H](COc3ccc(NC(=O)C4CCOCC4)cc3C(=O)N2C)O1	i
C[C@@H]1CN([C@H](C)CO)C(=O)c2cc(C#CC3CC3)cnc2O[C@@H]1CN(C)C(=O)c1ccccc1	i
CCNC(=O)C[C@H]1C=C[C@@H](NC(=O)C2CCC2)[C@H](CO)O1	i
C[C@@H]1ON(C)[C@H]2C[C@H]3c4[nH]c5c(-c6ccc(C(F)(F)F)cc6)cccc5c4CCN3C(=O)[C@@H]12	i

Of the compounds above, nine contain an aryl methoxy group.
SMILES	FGF22 binding
COc1ccc(S(=O)(=O)Nc2ccc3c(c2)C(=O)N([C@@H](C)CO)C[C@H](C)[C@H](CN(C)C(=O)NC(C)C)O3)cc1	i
COc1ccc(NC(=O)Nc2ccc3c(c2)C(=O)N([C@@H](C)CO)C[C@H](C)[C@H](CN(C)Cc2ccc(C(F)(F)F)cc2)OCCCC[C@H](C)O3)cc1	i
COc1cccc(NC(=O)N[C@H]2CC[C@@H](CC(=O)Nc3ccc(-c4ccccc4)cc3)O[C@@H]2CO)c1	i
COc1ccc2c3c(n(C)c2c1)[C@@H](CO)N(Cc1ccccc1)CC31CCN(C(=O)C2CC2)CC1	i
COc1ccc2c3c(n(C)c2c1)[C@H](CO)NCC31CN(Cc2ccccc2F)C1	i
COc1ccc(NC(=O)Nc2ccc3c(c2)C(=O)N([C@H](C)CO)C[C@@H](C)[C@H](CN(C)S(=O)(=O)c2ccc(C)cc2)O3)cc1	i
COc1ccc2c3c(n(C)c2c1)[C@@H](CO)N(C(=O)c1ccccc1)CC31CN(C(=O)c2ccccc2)C1	i
COc1ccc2c3c([nH]c2c1)[C@H](CO)N(CC1CC1)CC31CN(C(=O)c2cccc(F)c2)C1	i
COc1ccc(NC(=O)N(C)C[C@H]2Oc3cc(-c4ccc(C)cc4)ccc3S(=O)(=O)N([C@H](C)CO)C[C@H]2C)cc1	+
